# PMP22 txn – Cell-based coincidence reporter assay to measure PMP22 gene transcription in S16 Pmp22-F2sN cells - Primary screen; Potency, µM (titrated, usually from 57.5 µM), inactives show at the top dose activity change, negative = inhibition, hits mostly inhibitors; actives 2% (n = 43,000); S16 Pmp22-F2sN Schwann cells (luciferase reporters placed in the Pmp22 gene), FLuc/NLuc coincidence luminescence, 24 h; AID 1508649, 2021; active = clear falling dose curves in both reporters; inconclusive = both reporters move, but less clearly or upward; inactive = either reporter flat; the % is the NLuc reporter signal; note: % is set by controls: 0 for no effect and ±100 for the full control effect; some results filed as inactive show a strong effect at the top dose
#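 Schwann cells carrying the coincidence reporter were exposed to library compounds for 24 h at 37C, then lysed and read for FLuc and, after quenching, NLuc luminescence on a CCD imager.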
# HTT promoter inh – Primary qHTS for Identification of Small Molecule Inhibitors of Huntingtin Promoter Activity | HEK293 HTT promoter firefly luciferase reporter (activity 0% = vehicle and -100% = no light), 24 h | Potency, µM (series often up to 57.5 µM), for inactives: at the top dose activity change, negative = inhibition, most hits filed as inhibitors | actives 0.93% (n = 48,000); active = well fitted inhibition curve with a large enough effect; inconclusive = small, poorly fitted or top-dose-only effect; inactive = no such curve, though single readings can be large or run the other way; note: nearly all actives have a fitted effect of over 50% in size
#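 Firefly luciferase signal from promoter-reporter HEK293 cells was scaled between vehicle (0%) and zero RLU (-100%). Compounds were tested at final concentrations of up to 57.5 uM over 24 h at 37 degrees C. PTC124 at 50 uM final served as control inhibitor.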
# * = called active by the depositor; u = inconclusive; x = no result given; [ ] = remark or other dose. Potency is the fitted concentration of half-maximal effect. These rows are one share of the data; count on the stated rates, not on these rows.
# The first two compounds as a preview:
SMILES,PMP22 txn,HTT promoter inh
COc1ccc(CNC(=O)Cc2c(C)c3cc4c(C)coc4cc3oc2=O)cc1,-13.2%,-9.2%
COc1ccc(NC(=O)Cn2c(=O)n(Cc3ccco3)c(=O)c3oc4ccccc4c32)cc1Cl,u,-5.9%

# The whole of this part, previewed entries included:
SMILES,PMP22 txn,HTT promoter inh
COc1ccc(CNC(=O)Cc2c(C)c3cc4c(C)coc4cc3oc2=O)cc1,-13.2%,-9.2%
COc1ccc(NC(=O)Cn2c(=O)n(Cc3ccco3)c(=O)c3oc4ccccc4c32)cc1Cl,u,-5.9%
Cc1ccc(NC(=O)Nc2ccc3snnc3c2)cc1C,-48.1%,-7.1%
Cc1cccc(-c2noc(CSc3nc(-c4ccc(F)cc4)cc(=O)[nH]3)n2)c1,-6.7%,24.5%
Cc1ccc(C)c(NC(=O)Cn2c(=O)n(-c3ccc(CC(=O)NCC4CCCO4)cc3)c(=O)c3ccccc32)c1 (configuration not stated),13.1%,-2.3%
COc1ccccc1NC(=O)c1sc2nc(C)c(C(=O)Nc3ccc(C)cc3C)c(-c3ccc(C)o3)c2c1N,-17.3%,-12.7%
Cc1ccc(NCc2cccn2-c2nnc(N3CCC(C(=O)NC(C)C)CC3)s2)cc1,-56.6%,u
CCOc1ccc(-c2cc(-c3nc(-c4cc(OC)c(OC)c(OC)c4)no3)[nH]n2)cc1Cl,-2.8%,-16.5%
O=C(Nc1ncc(-c2cc(C(F)F)nn2-c2c(Cl)cccc2Cl)s1)C1CC1,x,u
Cc1ccc(Cn2c(C)c3cnn(CC(=O)NCc4ccccc4)c(=O)c3c2C)cc1,8.43µM*,u
CCOC(=O)c1c(S(=O)(=O)N2CCCC(C(=O)NCc3ccc(Cl)cc3)C2)c(C)n(C)c1C (configuration not stated),-1.1%,-18.2%
Cc1ccc(SCc2nc(-c3ccc(C(=O)NCC(C)c4ccccc4)cc3)oc2C)cc1 (configuration not stated),u,u
Cc1ccc2c(c1)c1c3n2CCNC3CCC1 (configuration not stated),x,1.2%
COc1cccc(CNC(=O)CCC(=O)N2CC(C)Sc3ccccc32)c1 (configuration not stated),12.3%,-19.5%
CCCCN(C)S(=O)(=O)c1ccc(C(=O)Nc2sc3c(c2C(=O)OCC)CCN(C(C)C)C3)cc1,u,u
O=C(COc1ccc(Cl)cc1)Nc1nnc(S(=O)(=O)N2CCCCCC2)s1,-13.5%,-15.6%
CC(C)NC(=O)C1CCC(Cn2c(=O)c3sccc3n(Cc3ccc(F)cc3)c2=O)CC1 (configuration not stated),u,-5.6%
O=C(CSc1nc2c(cnn2-c2ccc(F)cc2)c(=O)[nH]1)Nc1ccc(Br)cc1,-3.6%,-14.3%
CC(=O)c1ccc(N2CCN(C(=O)C3CCN(S(=O)(=O)c4ccc(Br)s4)CC3)CC2)cc1,-24.9%,u
Cc1nc(-c2ccc(C)c(N3CCN(C(=O)Nc4ccc(Br)cc4)CC3)c2)no1,u,u
CC[C@@H](C)[C@H](NC(=O)[C@H](CC1CCCCC1)NC(=O)c1ccno1)C(=O)N1CCC2(CCc3ccccc32)CC1,x,-9.0%
Cc1nc2cc(C(=O)NCCC3=CCCCC3)ccc2n1-c1ccc(Br)cc1,3.1%,-5.0%
COc1ccc(CNc2nc3c(-c4ccc(C)cc4)nnn3c3ccccc23)cc1,u,30.8%[activator]
CC(=O)Nc1nonc1-c1nnc(SCc2cccc(Br)c2)n1C,-4.1%,-15.5%
COc1ccccc1C1CC(=O)NC(C)=C1C(=O)OC1CCCCCC1 (configuration not stated),-2.6%,u
CCC(Sc1ncc(S(=O)(=O)c2ccc(C)cc2)c(=O)[nH]1)C(=O)Nc1cc(C)ccc1C (configuration not stated),-74.6%,-8.4%
Cc1ccc(C)c(N2CCN(C(=O)CCCn3ncn4c(cc5occc54)c3=O)CC2)c1,u,-33.5%
CCOC(=O)c1ccc(N2C(=O)c3n[nH]c(-c4ccco4)c3C2c2ccc(C(=O)OC)cc2)cc1 (configuration not stated),u,u
O=C(NC1CCCCC1)c1ccc2c(c1)sc1nc(-c3ccc(F)cc3)cn12,u,-10.5%
Cc1ccc(CCNC(=O)CCn2c(=O)c3cccn3c3ccc(F)cc32)cc1,u,-8.8%
Cn1c(=O)c2c(SCC(=O)NCC3CCCO3)nc(-c3cccc(F)c3)nc2n(C)c1=O (configuration not stated),-11.9%,-11.0%
CCC(=O)Nc1cccc(C(=O)OCc2cc(=O)n3nc(CC)sc3n2)c1,-20.7%,7.7%
CCC(=O)N1CCc2cc(S(=O)(=O)CCC(=O)NCc3cccc(OC)c3)ccc21,1.7%,-8.6%
COc1ccc(CCC(=O)NCc2ccc3c(c2)CCN3C(=O)c2ccccc2)cc1,25.6%,u
Cc1ccc(NC(=O)Cn2c(=O)n(Cc3ccco3)c(=O)c3ccccc32)c(C)c1,5.8%,-7.9%
COc1ccc(CCNC(=O)NCc2noc3ccc(C)cc23)c(OC)c1,4.7%,-22.3%
CC(C)Oc1cc(Nc2nc(N[C@@H](C)c3ccc(F)cn3)ncc2Cl)[nH]n1,x,u
CCc1ccc(CNC(=O)CCN2C(=O)COc3ccccc32)cc1,-11.6%,-17.9%
O=C(c1ccccc1)c1ccc2nc(Nc3ccccc3Cl)c3nncn3c2c1,6.7%,-15.2%
Cc1ccc(-c2[nH]c3c(c2-c2c(-n4cccc4)n(C)c(=O)[nH]c2=O)c(=O)[nH]c(=O)n3C)cc1,4.1%,-11.0%
CC(=O)Nc1ccc(NS(=O)(=O)c2ccc3c(c2)CCCN3C(C)=O)cc1,-0.6%,-3.5%
CCOc1ccc(CCNC(=O)CCCc2cc(-c3ccc(OCC)cc3)on2)cc1,2.4%,0.316µM*
CCC(=O)Oc1ccc(C2Nc3ccccc3-c3nnc(SC)nc3O2)cc1 (configuration not stated),10.7%,5.7%
COc1ccc(OC)c(NC(=O)c2cc(-c3ccc(Cl)s3)nc3ccccc23)c1,u,-0.5%
Cc1cc(=O)n2[nH]c(NC(=O)c3cccc(Cl)c3)nc2n1,-5.3%,-0.6%
CC(C)(C)c1ccc(C(=O)NNc2ncnc3c2cnn3-c2ccccc2)cc1,u,-25.1%
O=C(NCCc1ccc(Cl)cc1)c1nnc(Cc2ccc(Cl)cc2Cl)o1,8.6%,-10.1%
CCOc1cccc(NC(=O)C2CC(=O)N(CC)C(=Nc3ccc(F)cc3)S2)c1 (configuration not stated),2.3%,-17.6%
CCCCN(CCCC)CCNC(=O)c1cn(CC)c2ccc(S(=O)(=O)N(C)C3CCCCC3)cc2c1=O,u,-1.7%
O=C(Nc1cccc(-c2nc3cccnc3s2)c1)c1cccc(Br)c1,u,-25.1%
Cc1cccc(NC(=O)C2CCN(S(=O)(=O)c3ccc(F)cc3)CC2)c1C,-1.8%,u
Cc1cc(C)c2c(=O)cc(C(=O)Nc3sc4c(c3C(=O)NCC3CCCO3)CCCC4)oc2c1 (configuration not stated),3.8%,9.3%
Cc1cccc(NC(=O)c2ccc3oc(=O)c(S(=O)(=O)c4ccc(F)cc4)cc3c2)c1C,-8.4%,-7.2%
CCOc1ccc(S(=O)(=O)c2cn(C)c3ccccc3c2=O)cc1,11.8%,-23.5%
COc1ccc(CCNC(=O)C(=O)NCC(c2ccc3c(c2)OCO3)N2CCOCC2)cc1 (configuration not stated),-42.5%,-18.0%
COC(=O)c1ccccc1NC(=O)Cn1c(=O)n(CCC(=O)NCc2ccccc2OC)c(=O)c2ccccc21,u,-9.8%
CC(=O)N1CCc2cc(CNS(=O)(=O)c3ccccc3C(F)(F)F)ccc21,-17.5%,7.8%
Nc1c(C(=O)Nc2ccccc2Cl)c2ccccn2c1C(=O)c1ccc(Cl)cc1,11.5%,-2.2%
Cc1ccc(S(=O)(=O)c2cn(C)c3cc(N4CCCC(C)C4)c(F)cc3c2=O)c(C)c1 (configuration not stated),u,u
NS(=O)(=O)Cc1noc2ccccc12,x,13.2%
# Later entries:
SMILES,PMP22 txn,HTT promoter inh
COc1cc(OC)cc(-c2nc3nc(C)c(CCC(=O)Nc4ccccc4)c(C)n3n2)c1,-4.2%,-10.2%
COc1cc2ccccc2cc1C(=O)Nc1ccc(Cl)c(-c2nc3ccccc3o2)c1,u,-26.8%[11.5 µM]
O=C(c1cc2ccc3cccnc3c2[nH]1)N1CCN(c2ccc(Cl)cc2)CC1,-4.7%,6.6%
CCOc1ccc(-c2cc3nc(C4CCN(C(=O)OC(C)(C)C)CC4)c(C(=O)Nc4cccc(CC)c4)cn3n2)cc1,3.2%,-24.8%
COc1ccc(Cn2c(CCC(=O)Nc3ccc(Br)c(C)c3)nc3cccnc32)cc1,8.8%,-18.4%
Cc1cc(C)c2c(=O)cc(CSc3nnc(COc4ccccc4C)n3C)[nH]c2c1,-0.2%,-19.9%
Cc1ccc(Cn2c(SCC(=O)NCc3ccccc3)nc3ccsc3c2=O)cc1,u,-3.6%
CCOC(=O)c1sc2ncn(CC(=O)Nc3cccc(C)c3)c(=O)c2c1C,-2.8%,-6.5%
Cc1c(Cl)cccc1NC(=O)CSc1nc(=O)[nH]c2c1CCC2,u,-26.1%
Cc1cc(N2CCN(C)CC2)nc2ccc(NC(=O)Nc3ccc(F)cc3F)cc12,u,53.7%[activator]
Cn1c(=O)c2c(nc(SCC(=O)Nc3ccc(F)c(F)c3)n2Cc2ccccc2F)n(C)c1=O,-16.3%,-11.5%
Cc1cc2oc(C(=O)N(Cc3ccco3)Cc3ccccc3Cl)c(C)c2cc1C,-28.0%,-13.4%
CCOC(=O)c1cccc(NC(=O)CSc2cc(=O)n(C)c3ccccc23)c1,-24.3%,-24.4%
CC(C)(C)c1ccc(OCc2cc(=O)n3c4c(sc3n2)CCCC4)cc1,-0.4%,-7.4%
CCN(CC)S(=O)(=O)c1ccc2c(c1)c(=O)c(C(=O)NCCc1ccc(OC)c(OC)c1)cn2C,-26.5%,5.3%
Cc1ccc(-n2nc3ccc(NC(=O)c4oc5ccccc5c4C)cc3n2)cc1,u,14.7%
Cc1ccc(-n2nc(C)c(C(=O)O)c2-n2cccc2)cc1,-0.5%,-9.0%
CCc1nc2cccnc2n1-c1ccc(CC(=O)Nc2ccc(C)cc2)cc1,-26.0%,-26.4%
COc1ccccc1C(=O)Nc1ccc(OCc2cc(=O)n3cccc(C)c3n2)cc1,u,-6.1%
CC(C)OC(=O)c1cc(C(=O)OC(C)C)cc([N+](=O)[O-])c1,x,3.2%[116 µM]

# Part of the list above in order of molar mass, highest first:
SMILES,PMP22 txn,HTT promoter inh
COc1cc(OC)cc(-c2nc3nc(C)c(CCC(=O)Nc4ccccc4)c(C)n3n2)c1,-4.2%,-10.2%
CC(C)(C)c1ccc(OCc2cc(=O)n3c4c(sc3n2)CCCC4)cc1,-0.4%,-7.4%
Cc1c(Cl)cccc1NC(=O)CSc1nc(=O)[nH]c2c1CCC2,u,-26.1%

# Remaining list, next part
SMILES,PMP22 txn,HTT promoter inh
Cc1ccc(C(=O)Nc2ccc3oc(-c4ccncc4)nc3c2)c(Cl)c1,-2.3%,-17.3%
Cc1ccc(-c2nnc(Nc3cccc(O)c3)c3ccccc23)cc1S(=O)(=O)NCC1CCCO1 (configuration not stated),u,u
Cc1ccc(C)c(CNC(=O)c2ccc3c(c2)nc2n3CCC(C)C2)c1 (configuration not stated),0.5%,20.6%
COc1ccc(N2CCN(C(=O)c3cnc(N4CCOCC4)c4ccccc34)CC2)cc1,u,-25.4%
O=C1COc2ccc(-c3cc(-c4ccc(F)cc4)c4c(n3)-c3ccccc3OC4)cc2N1,16.8µM*,-9.5%
Cc1ccccc1NC(=O)Cn1c(=O)n(CCCCC(=O)NCc2ccccc2Cl)c(=O)c2ccccc21,u,-8.4%
CCC(=O)Nc1nnc(S(=O)(=O)N2c3ccccc3CC2C)s1 (configuration not stated),-5.8%,-11.6%
COc1ccc(-c2noc(-c3ccc(NCc4ccco4)c([N+](=O)[O-])c3)n2)cc1OC,-18.2%,10.5%
Cc1cc(C)c(Cn2c(C)c(CNCCCc3ccccc3)c(C(=O)O)c2C)c(C)c1,u,-20.2%
Cc1oc(-c2ccccc2F)nc1CS(=O)(=O)CC(=O)N1CCN(c2cccc(C(F)(F)F)c2)CC1,-30.9%,u
COc1ccc(N(CC(=O)N2CCN(c3cccc(C)c3C)CC2)S(=O)(=O)c2c(C)noc2C)cc1,-19.4%,u
Cc1ccc(S(=O)(=O)N2CCc3cc(C(=O)Nc4c(C)cccc4C(C)C)ccc32)cc1,u,u
CCOC(=O)c1ccccc1NC(=O)Cn1nnc2sc3c(c2c1=O)CCCC3,-8.3%,4.4%
Cc1ccc(NS(=O)(=O)c2cc3[nH]c(=O)c(=O)[nH]c3cc2C)cc1Cl,31.2%,-3.2%
COc1cccc(C(=O)Nc2c(C(=O)NC(C)(C)C)oc3ccccc23)c1,u,-4.4%
CN(Cc1ccc(F)cc1)S(=O)(=O)c1nnc(NC(=O)c2ccccc2Cl)s1,-18.2%,-5.0%
COc1ccc(NC(=O)c2oc3ccc(S(=O)(=O)N4CCCCC4)cc3c2C)cc1,-28.9%,u
CCOC(=O)C(C)NC(=O)c1c2c(nc3ccccc13)C(=O)N(C1CCCCC1)C2 (configuration not stated),-6.0%,-5.6%

# Compound activity as filed in PubChem BioAssay.
